Assay outcomes as filed in PubChem BioAssay.
Mtb H37Rv – Mycobacterium tuberculosis H37Rv growth inhibition, putative kinase inhibitor library, confirmatory dose response (AID 2842). M. tuberculosis H37Rv growth inhibition; higher % means a stronger effect; some inactives read as strong as hits. inhibition, % at 10 µg/mL; hits with a dose series show IC90 in µg/mL. 24,000 tested, 5.2% active;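 active = confirmed in a dose series; about a fifth of its hits are not listed in these tables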;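 note: bacteria incubated one week before Alamar blue readout; 0% = bacteria only wells and 100% = bacteria with high antibiotic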
* hit, by the source's call.

canonical_smiles | Mtb H37Rv
CC(C)N1CCc2c(sc(NC(=O)Cc3cccc4ccccc34)c2C#N)C1 | -3%
Cc1c(Cl)cccc1N1C(=O)CC(Sc2ncccc2C(=O)O)C1=O (stereo unspecified) | -9%
Cc1ccc2c(c1)C(c1ccc(F)cc1)N(C(=O)C1(c3ccc(Cl)cc3)CCCC1)CC(=O)N2 (stereo unspecified) | 47%
CN(c1ccccc1)S(=O)(=O)c1ccc(C(=O)Nc2nc(-c3cccc4ccccc34)cs2)cc1 | 14%
COc1cc(S(=O)(=O)NCCN2CCOCC2)c(OC)cc1C | -9%
COc1ccc(CCC(=O)Nc2c(C(=O)Nc3ccc4c(c3)OCCO4)oc3ccccc23)cc1 | -9%
CCOC(=O)c1oc2ccccc2c1NC(=O)c1ccc(F)cc1 | 4%
CNC(=O)Cc1cc(=O)[nH]c(=O)[nH]1 | -8%
COc1cc(/C=C2\SC(=S)N(c3cccc(C(C)=O)c3)C2=O)cc(OC)c1OC | -2%
Clc1cccc(-n2ncc3c(Nc4ccc(OCc5ccccc5)cc4)ncnc32)c1 | 10%
COc1ccc(N(CC(=O)Nc2ccccc2OC)C2=NC3CS(=O)(=O)CC3S2)cc1 (stereo unspecified) | 2%
O=C(CSc1nc2c([nH]c3ccccc32)c(=O)n1-c1ccc([N+](=O)[O-])cc1)c1ccccc1 | 6%
COC(=O)c1cc(N/C=C(\C#N)c2nc(-c3ccc(CC(C)C)cc3)cs2)cc(C(=O)OC)c1 | 5%
COc1ccccc1C(=O)Nc1nc(-c2cc3ccccc3oc2=O)cs1 | 1%
CCOc1ccccc1C(=O)Nc1cccc(-c2ccc3nncn3n2)c1 | 6%
COc1ccc(Cl)cc1NS(=O)(=O)c1cc2c3c(c1)CCC(=O)N3CCC2 | -9%
N#Cc1c(NC(=O)COc2ccc(C(=O)NCCc3ccccc3)cc2)sc2c1CCC2 | -3%
O=C(NCc1ccccc1)N1CCn2cccc2C1c1ccncc1 (stereo unspecified) | -4%
COc1cccc(NC(=O)c2cnc(SCc3ccccn3)n(C)c2=O)c1 | -3%
COc1cc(/C=C/C(=O)O)cc(S(=O)(=O)N2CCC(C(=O)O)CC2)c1OC | -19%
CCS(=O)(=O)c1cccc(C(=O)Nc2nc(C)c(C(C)=O)s2)c1 | 0%
COc1cc2c(=O)c(C(=O)c3ccc(C)cc3)cn(Cc3ccc(F)cc3)c2cc1OC | 3%
O=C(CCS(=O)(=O)c1ccc(Cl)cc1)Nc1ccc2ncsc2c1 | 28%
CCOC(=O)c1cc2c(=O)n3ccccc3nc2n(CCc2ccccc2)c1=NC(=O)c1ccccc1 | 6%
COc1ccc(C(=O)CSc2nnc3ccc(-c4ccccn4)nn23)cc1 | -12%
C#CCSc1nnc2[nH]c(=O)cc(CCC)n12 | 1%
COc1ccc(-c2nc3c(c(SCC(N)=O)n2)Cc2ccccc2O3)cc1 | 2%
CCCN1C(=O)C(C)(C)COc2ccc(NS(=O)(=O)c3ccc4c(c3)CCCC4)cc21 | 20%
Cc1ccc(Cl)cc1-n1ncc2c(NNC(=O)c3ccc(Cl)cc3)ncnc21 | -5%
Cc1ccc(-c2nnc3c4cc(F)ccc4n(Cc4ccccc4)cc2-3)cc1 | 1%

At a glance, three of the compounds above.
canonical_smiles | Mtb H37Rv
COc1ccc(Cl)cc1NS(=O)(=O)c1cc2c3c(c1)CCC(=O)N3CCC2 | -9%
N#Cc1c(NC(=O)COc2ccc(C(=O)NCCc3ccccc3)cc2)sc2c1CCC2 | -3%
O=C(NCc1ccccc1)N1CCn2cccc2C1c1ccncc1 (stereo unspecified) | -4%

(listing goes on)
canonical_smiles | Mtb H37Rv
Cc1ccccc1C1C=C(c2cccs2)Nc2nc3ccccc3n21 (stereo unspecified) | 14µg/mL*
Cc1ccc(NS(=O)(=O)c2ccccc2)c(-c2nc3ccccc3[nH]c2=O)c1 | -6%
COc1ccccc1CNC(=O)CCCc1nnc2c(=O)n(-c3ccc(Cl)cc3)ccn12 | -2%
CCOc1ccc(-n2c(O)c(C3=c4cc(Br)ccc4=NC3=O)sc2=S)cc1 | 2%
O=C(Nc1ccccc1F)c1oc2ccccc2c1NC(=O)c1cccc2ccccc12 | 29%
CCCCn1c(=O)cc(N2CCOCC2)[nH]c1=O | -2%
Cc1cc(C)cc(NC(=O)CN2C(=O)C3(SCC(=O)N3c3ccc(F)cc3)c3ccccc32)c1 (stereo unspecified) | 8%
Cc1ccc2cc(CCNC(=O)c3ccc(S(=O)(=O)N(C)C)cc3)c(=O)[nH]c2c1C | -11%
COc1cccc(-n2c(SCC(=O)N3CCCCCC3)nc3c([nH]c4ccccc43)c2=O)c1 | 2%
O=C(O)CSc1ccc(S(=O)(=O)C(F)(F)F)cc1[N+](=O)[O-] | -6%
O=C(Nc1nnc(-c2ccccn2)o1)c1cccc(N2C(=O)CCC2=O)c1 | 98%
CC(C)N1CCc2c(sc(NC(=O)c3ccc([N+](=O)[O-])s3)c2C(N)=O)C1 | 6.3µg/mL*
Clc1ccc(Cl)c(-c2ccc(-c3nn4c(-c5ccco5)nnc4s3)o2)c1 | 3%
O=C(CN1C(=O)S/C(=C/c2ccccc2F)C1=O)Nc1ccc(C(=O)O)cc1 | -11%
Cc1csc(NC(=O)CSc2nnc(CNC(=O)c3cccc([N+](=O)[O-])c3C)o2)n1 | 1%
COC(=O)c1ccc(CSc2ncnc3c2cnn3-c2ccc(C)cc2C)o1 | -2%
Cc1ccccc1C(=O)NCCc1cc2ccc(C)c(C)c2[nH]c1=O | 14%
CN(C)CCCNC(=O)c1ccccc1-c1n[nH]c2c1CCCC2 | -15%
O=C(COc1ccc(Cl)cc1)Nc1nc2ccc(S(=O)(=O)N3CCCC3)cc2s1 | 3%
NC(=O)c1cn(-c2ccccc2)nc1-c1ccc(Cl)cc1 | -8%
O=C(CCCSc1nc2sc3c(c2c(=O)[nH]1)CCC3)NC1CCCCC1 | -1%
CCOC(=O)N1CCN(C(=O)CSc2ccnc3c2c(=O)n(C)c(=O)n3C)CC1 | -1%
Cc1ccc2cc(CCNC(=S)Nc3cccc(Br)c3)c(=O)[nH]c2c1C | 6%
O=C(NCc1cccnc1)C(=O)NCC(c1ccco1)N1CCN(c2ccc(F)cc2)CC1 (stereo unspecified) | -5%
CCCn1c(CN2CCN(c3cccc(Cl)c3)CC2)nc2c1c(=O)[nH]c(=O)n2C | 63%
CCc1nnc(NC(=O)CSc2nnc3[nH]c(=O)c(C)c(C)n23)s1 | -9%
COC(=O)c1c(NC(=O)c2cc3ccccc3cc2OC)sc2c1CC(C)(C)NC2(C)C | 32µg/mL*
O=C(NCCn1nc(-c2ccc(Cl)cc2)ccc1=O)c1ccco1 | -4%
CC(=O)c1ccc(NC(=O)CSc2nc(N)c(NC(=O)c3ccco3)c(=O)[nH]2)cc1 | -6%
Cc1cn2c3c(=O)n(CCN4CCOCC4)c(=O)n(C)c3nc2n1-c1ccccc1Cl | -15%

By substructure: those above containing fluorine (9)
canonical_smiles | Mtb H37Rv
Cc1ccc2c(c1)C(c1ccc(F)cc1)N(C(=O)C1(c3ccc(Cl)cc3)CCCC1)CC(=O)N2 (stereo unspecified) | 47%
CCOC(=O)c1oc2ccccc2c1NC(=O)c1ccc(F)cc1 | 4%
COc1cc2c(=O)c(C(=O)c3ccc(C)cc3)cn(Cc3ccc(F)cc3)c2cc1OC | 3%
Cc1ccc(-c2nnc3c4cc(F)ccc4n(Cc4ccccc4)cc2-3)cc1 | 1%
O=C(Nc1ccccc1F)c1oc2ccccc2c1NC(=O)c1cccc2ccccc12 | 29%
Cc1cc(C)cc(NC(=O)CN2C(=O)C3(SCC(=O)N3c3ccc(F)cc3)c3ccccc32)c1 (stereo unspecified) | 8%
O=C(O)CSc1ccc(S(=O)(=O)C(F)(F)F)cc1[N+](=O)[O-] | -6%
O=C(CN1C(=O)S/C(=C/c2ccccc2F)C1=O)Nc1ccc(C(=O)O)cc1 | -11%
O=C(NCc1cccnc1)C(=O)NCC(c1ccco1)N1CCN(c2ccc(F)cc2)CC1 (stereo unspecified) | -5%

The list continues.
canonical_smiles | Mtb H37Rv
O=S(=O)(NCCc1csc(-c2cccnc2)n1)c1cccc(F)c1 | 10%
CCc1ccc2c(c1)c(=O)c(C(=O)c1ccccc1)cn2CC(=O)Nc1ccc2c(c1)OCO2 | 11%
Cc1ccc(NC(=O)c2sc3nc(=O)c(C)nn3c2C(=O)Nc2ccc(F)cc2)cc1 | 3%
COC(=O)C1=C(C)NC(=S)NC1/C=C/c1ccccc1 (stereo unspecified) | 9%
NC(=O)c1oc2ccccc2c1NC(=O)c1sc2ccccc2c1Cl | -7%
Nc1nc(SCC(=O)Nc2cccc(Cl)c2)[nH]c(=O)c1NC(=O)c1ccccc1 | -7%
Cc1ccc(N2C(=O)C3N=NN(CC(=O)Nc4cccc(Cl)c4C)C3C2=O)cc1C (stereo unspecified) | -17%
COc1ccccc1-c1ccc(SCc2cccnc2)nn1 | 9%
Nc1nc(SCC(=O)N2CCCc3ccccc32)[nH]c(=O)c1NC(=O)c1ccccc1F | -3%
O=C(Nc1ccc(S(=O)(=O)N2CCCCC2)cc1)c1cc2cc(Br)ccc2oc1=O | -1%
COc1ccc2sc(Nc3cc(C)ccc3C)nc2c1 | 17%
CCC(=O)Nc1nc(-c2ccc(C)cc2)c(-c2ccccc2)s1 | 1%
O=C(Nc1nc(-c2ccccc2)cs1)c1ccc2c(c1)OCCO2 | -1%
CCCCCn1c(NC)nc2c1c(=O)[nH]c(=O)n2C | 13%
Cc1cccc(OCC(=O)NC2CC(=O)N(c3ccc(F)cc3)C2)c1 (stereo unspecified) | 7%
CCOCCCn1c(SCC(=O)Nc2ccccc2Cl)nc2c(oc3ccccc32)c1=O | -3%
COc1ccc(-n2ccnc(SCc3cc(C)ccc3C)c2=O)cc1OC | -2%
COc1cccc(OCCn2cnc3ccccc32)c1 | 24%
Cc1ccc2cc(CCNC(=O)CC(C)(C)C)c(=O)[nH]c2c1 | -15%
CC(C)CNC(CC(=O)Nc1cccc([N+](=O)[O-])c1)C(=O)O (stereo unspecified) | -11%
C=CCn1c(N/N=C/c2cccc(O)c2)nc2c1c(=O)n(C)c(=O)n2C | -4%
Cc1nnc(NC(=O)CSc2nnc(CNC(=O)COc3ccc(Cl)cc3)n2-c2ccccc2)s1 | -1%
C(=N\c1nc2ccccc2s1)/Nc1nc2ccccc2s1 | 13%
CCOc1ccc(/C(O)=C2\C(=O)C(=O)N(CCCn3ccnc3)C2c2ccncc2)cc1Cl (stereo unspecified) | 0%
Cc1ccc(NS(=O)(=O)c2cc3c4c(c2)CCN4C(=O)CC3)cc1Cl | 2%
CC(=O)C1C(c2ccc(OC(F)F)cc2)NC(=O)NC1(O)C(F)(F)F (stereo unspecified) | -7%
CCOC(=O)N1CCN(C(=O)c2cc3cc([N+](=O)[O-])ccc3s2)CC1 | 8%
Fc1ccc(Nc2nc3ccc(F)cc3s2)cc1 | 0%
Cn1c(=O)[nH]c(=O)c2c1nc(NCCN1CCOCC1)n2CC(O)COc1ccccc1 (stereo unspecified) | 13%
Cc1ccc(-c2nnc3ccc(SCC(=O)NC4CCCC4)nn23)cc1 | -9%

(listing goes on)
canonical_smiles | Mtb H37Rv
CC(=O)Nc1ccc(S(=O)(=O)N2CCN=C2SCc2cccc(F)c2)cc1 | 0%
O=C(Nc1ccc(Cl)cc1)c1oc2ccccc2c1NC(=O)C1CC1 | 1%
COc1ccccc1C(=O)Nc1nnc(C2=COCCO2)o1 | -9%
Cc1ccc(C(=O)Nc2nnc(-c3ccccc3Cl)s2)cc1 | 5%
O=C(Cn1cnc2c(cnn2-c2ccc(F)cc2)c1=O)NCc1ccccc1 | 3%
CCCSc1nc2c(c(=O)[nH]c(=O)n2C)n1CC(O)COc1ccc(Cl)cc1 (stereo unspecified) | 16%
COC(=O)c1ccsc1NC(=O)c1cc(=O)c2ccccc2o1 | -5%
Cn1c(=O)c2c(nc(SCCOc3ccccc3)n2Cc2ccc(Cl)cc2)n(C)c1=O | 0%
O=C(CCN1C(=O)c2ccccc2S1(=O)=O)Nc1cccc(Cl)c1Cl | 0%

A portion of the library (hit frequency here may not be typical).
